# Vaccinia mCherry = inhibitors of vaccinia virus infection (mCherry reporter signal); Vaccinia virus mCherry reporter infection, fluorescence; about a quarter of the inactives have no number; Potency, µM (titrated, usually from 36.5 µM), without a hit: at the top dose activity change, negative = inhibition, hits mostly inhibitors; 310,000 compounds, 0.63% hits; active = well fitted inhibition curve with a large enough effect; inconclusive = small, poorly fitted or top-dose-only effect; inactive = no such curve, though single readings can be large or run the other way; tested in A549 cells; further: nearly all actives have a fitted effect of over 35% in size; inactives centre near -10
# Vaccinia Venus = inhibitors of vaccinia virus (Venus reporter). Potency, µM (highest dose often 36.5 µM), without a hit: top-dose activity change, negative = inhibition, hits mostly inhibitors. 330,000 compounds, 0.46% hits. AID 720580. Vaccinia virus Venus reporter expression, fluorescence; active means well fitted inhibition curve with a large enough effect; inconclusive means small, poorly fitted or top-dose-only effect; inactive means no such curve, though single readings can be large or run the other way; tested in A549 cells; further: nearly all actives have a fitted effect of over 30% in size; inactives centre near -10
# * = called active by the depositor; i = inactive; ? = inconclusive; . = no result given; & = joins results of further samples; [ ] = another dose, or the depositor's remark. On the % scale 0 is the no-effect control and ±100 the full control effect; potency means the concentration at half of the fitted maximal effect. Rows were taken by chance. About 0.82% of those tested had a hit in this group.
SMILES,Vaccinia mCherry,Vaccinia Venus
Cc1ccc(NC(=O)C2(C)CCN2C(=O)Cc2ccc(C(C)(C)C)cc2)cc1C (stereo not drawn),29%,-3%
CCOC(=O)N1CCN(C(=O)c2ccc3c(c2)N(Cc2ccc(F)cc2)CCS3)CC1,i,-7%
COc1ccc(C2c3c(-c4ccccc4O)n[nH]c3C(=O)N2Cc2ccco2)cc1OC (stereo not drawn),-3%,-17%
Cc1ccc(NC(=S)N/N=C2/CCCCc3ccccc32)cc1,?,-23%[7.34 µM]
CC(=O)N(CC(=O)O)c1ccccc1,-11%,-2%
Cc1ccc(S(=O)(=O)N2CCN(C(=O)COC(=O)c3cc(C)oc3C)CC2)cc1,2%,4%
CCc1cccc(Nc2cnn(C34C[C@@H]5C[C@@H](CC(CC(=O)O)(C5)C3)C4)c(=O)c2Cl)c1,i,-18%
Cc1ccc(C(C)C)c(OCC(=O)N2CCC(c3nc4ccccc4o3)CC2)c1,-11%,-6%
COc1ccc(-c2nc(SCC(=O)NCC3CCCO3)c(-c3ccc(C)cc3)[nH]2)cc1OC (stereo not drawn),-11%,-2%
COc1ccc2[nH]c3c(c2c1)CCN1C(=O)N([C@@H](C)C(=O)NCCc2ccc(OC)c(OC)c2)C(=O)[C@]31C,-3%,0%
O=S(=O)(CCN1CCCCC1)Oc1ccc(Cl)cc1Cl,-15%,?
S=C(NCCc1ccccc1)Nc1ccccc1,-6%,1%
CCN(CC(=O)Nc1c(F)cccc1F)C(=O)c1ccc(N2CCCC2=O)cc1,-9%,-1%
Cc1cccc(-c2nnn3c2nc(NCCc2ccc(S(N)(=O)=O)cc2)c2ccccc23)c1,?,?
CCOc1ccccc1-n1nnc(-c2nsc(NC(=O)c3ccc(C)cc3)n2)c1C,-5%,?

# Record cards, from the list above:
# Profile of `Cc1ccc(S(=O)(=O)N2CCN(C(=O)COC(=O)c3cc(C)oc3C)CC2)cc1` → Vaccinia mCherry = 2%; Vaccinia Venus = 4%
# Profile of `Cc1cccc(-c2nnn3c2nc(NCCc2ccc(S(N)(=O)=O)cc2)c2ccccc23)c1` → Vaccinia mCherry = ?; Vaccinia Venus = ?

# (list continues)
SMILES,Vaccinia mCherry,Vaccinia Venus
CC(=O)c1ccccc1C(=O)N1CCCC(CCC(=O)N2CCN(c3ccccn3)CC2)C1 (stereo not drawn),-9%,-5%
CNc1ccnc(-c2c(C)noc2C)n1,i,-9%
CCOC(=O)c1c(NC(=O)CN(C)C)sc(C(=O)N(CC)CC)c1C,i,-14%
CC(C)n1nnnc1-c1ccc(Cl)cc1,-4%,-6%
Cc1cc(Nc2nnnn2-c2ccccc2)n(-c2ccc(Cl)cc2)n1,?,?
COc1ccc(NS(=O)(=O)c2ccc3c(c2)[C@H]2C=CC[C@H]2[C@@H](c2ccc(C(=O)O)cc2)N3)cc1,-8%,-3%
CCc1nnc(NC(=O)CS(=O)(=O)c2ccccc2)s1,13%,-5%
O=C(Nc1cc(Cl)cc(Cl)c1)C1C2C=CC3(O2)C1C(=O)N(CCCN1CCOCC1)C3C(=O)NC1CCCCC1 (stereo not drawn),i,-20%
CC(=O)Nc1ccc(NC(=O)C(C)OC(=O)CC2CCCCC2)cc1 (stereo not drawn),-13%,0%
Cn1c(=O)c2c(nc(N/N=C/c3c(O)n(-c4ccccc4)c(=S)[nH]c3=O)n2C)n(C)c1=O,-14%,-2%
O=C(NCc1ccccc1)c1cccc(COc2ccc3c(c2)CCC3)c1,-15%,-7%
O=C(NC(=S)Nc1ccc(N2CCCCC2)cc1)c1ccc2c(c1)OCCO2,-24%,-12%
COc1ccc2c(c1[N+](=O)[O-])CCC/C2=N/OC(=O)c1ccccc1SC,.,-6%
Cc1ccccc1C(=O)NNC(=O)c1cc(N)cc([N+](=O)[O-])c1,-4%,3%
Cc1cc(C)n2cc(CSc3nc4ccccc4s3)nc2n1,i,-23%
COc1ccc(NC(=O)CN(C)C(=O)c2c(-c3c(F)cccc3Cl)noc2C)cc1,-21%,-10%
Cc1ccc(NC(=O)Cc2ccc3c(c2)CCCC3)cc1C,i,-8%
O=C(Nn1cnc2ccccc2c1=O)c1ccc([N+](=O)[O-])cc1,-15%,-11%
CC1COC(C)(CC(=O)NN2C(=O)c3ccccc3C2=O)O1 (stereo not drawn),i,-6%
COC(=O)c1scc(-c2ccc(C)cc2)c1S(=O)(=O)N1CCN(c2cccc(Cl)c2)CC1,-6%,7%
COc1cccc(CNC(=O)CCc2nc(-c3ccc(C)cc3)no2)c1,-3%,15%
CCOc1ccccc1NC(=O)Cn1c(=O)n(-c2ccccc2)c(=O)c2c1c1cc(C)ccc1n2C,-1%,0%
CC1CCCCN1C(=O)c1ccccc1OC1CCN(S(C)(=O)=O)CC1 (stereo not drawn),-18%,-7%
Cc1cccc(C)c1NC(=O)CN(C)C(=O)c1ccc(-c2cccc(C(F)(F)F)c2)o1,-6%,-10%
COc1ccccc1CN1C(=O)CN(C2CCCCCC2)C(=O)C1c1ccc(F)cc1 (stereo not drawn),6%,6%
COc1ccc(-c2[nH]c(-c3ccccc3)nc2SCC(=O)NC2CCCC2)cc1,?,?
OCC(O)C(O)CC1SCCS1 (stereo not drawn),i,-11%
Cc1c(C(=O)N2CCC(C(N)=O)CC2)oc2ccc(Br)cc12,-2%,-2%
C=CCNC(=S)NNC(=O)c1ccncc1,i,-14%
COc1cccc(NC(=O)CN(C)C(=O)CNC(=O)c2ccc3ccccc3c2)c1,i,-28%

# Look-ups from the entries so far.
# Entry of O=C(Nn1cnc2ccccc2c1=O)c1ccc([N+](=O)[O-])cc1 in Vaccinia Venus: -11%
# Entry of COc1cccc(NC(=O)CN(C)C(=O)CNC(=O)c2ccc3ccccc3c2)c1 in Vaccinia Venus: -28%
# Entry of COc1ccc(NC(=O)CN(C)C(=O)c2c(-c3c(F)cccc3Cl)noc2C)cc1 in Vaccinia mCherry: -21%
# Entry of COc1cccc(CNC(=O)CCc2nc(-c3ccc(C)cc3)no2)c1 in Vaccinia mCherry: -3%

# The results go on.
SMILES,Vaccinia mCherry,Vaccinia Venus
CCC1CCCCN1C(=O)Nc1cccc(NC(=O)N2CCCCC2CC)c1 (stereo not drawn),.,-8%
O=C(c1cc(F)ccc1F)C1CCCN(C(=O)CCc2cnccn2)C1 (stereo not drawn),-8%,-11%
CCC(C)Sc1nc2ccccc2c(=O)[nH]1 (stereo not drawn),.,-15%
COc1ccc(NC(=O)C(=O)NCCN2CCN(C(=O)c3ccc(C(C)(C)C)cc3)CC2)cc1,-4%,-13%
O=C(N/N=C/c1c(O)n(-c2ccccc2)c(=S)[nH]c1=O)c1ccccc1,-16%[7.34 µM],-1%[7.34 µM]
COc1ccc(NC(=O)CCCS(=O)(=O)c2nc(-c3ccccc3OC)cc(C(F)(F)F)n2)c(OC)c1,-6%,5%
COc1ccc(-c2cn3cccc(C)c3n2)cc1Br,-25%,-16%
C[C@]12CC[C@H](O)CC1=C[C@H](O)C1C2CC[C@@]2(C)C1CC[C@@]2(O)C#Cc1ccc(CN)cc1 (stereo partly drawn),-26%,-6%
OCCN1CCN(Cc2ccc3c(c2)CN(Cc2cccc4ncccc24)CCO3)CC1,-8%,3%
COc1ccc(OC)c(-c2nc(CN3CCN(C(=O)c4ccco4)CC3)c(C)o2)c1,-12%,5%
CCOc1ccc(NC(=O)CSC2=Nc3ccccc3C3=NC(CC(=O)NCc4cccs4)C(=O)N23)cc1 (stereo not drawn),-10%,-13%
COC(=O)c1ccc(/C=C/C(=O)OCC(=O)Nc2sccc2C(N)=O)cc1,-25%,-18%
COc1cc(CN2CCOc3ccc(CN4CCC(O)(c5cccnc5)CC4)cc3C2)ccc1F,-13%,-1%
COc1ccccc1NC(=O)c1ccc(-c2nn(C)c(=O)c3ccccc23)cc1,-2%,-4%
Cc1ccccc1NC(=O)CCc1c(C)nn(-c2ccc(N3CCCCC3)nn2)c1C,-17%&2%,-22%&-8%

# Of the compounds above, five contain a furan ring, fused or not:
SMILES,Vaccinia mCherry,Vaccinia Venus
COc1ccc(C2c3c(-c4ccccc4O)n[nH]c3C(=O)N2Cc2ccco2)cc1OC (stereo not drawn),-3%,-17%
Cc1ccc(S(=O)(=O)N2CCN(C(=O)COC(=O)c3cc(C)oc3C)CC2)cc1,2%,4%
Cc1cccc(C)c1NC(=O)CN(C)C(=O)c1ccc(-c2cccc(C(F)(F)F)c2)o1,-6%,-10%
Cc1c(C(=O)N2CCC(C(N)=O)CC2)oc2ccc(Br)cc12,-2%,-2%
COc1ccc(OC)c(-c2nc(CN3CCN(C(=O)c4ccco4)CC3)c(C)o2)c1,-12%,5%

# (listing goes on)
SMILES,Vaccinia mCherry,Vaccinia Venus
COc1ccc(CN2CCN(C(=O)CCC(=O)Nc3nnc(C4CCCCC4)s3)CC2)cc1F,-11%,-18%
Cc1nn(-c2ccccc2)c(Cl)c1C1C(C#N)=C(N)Oc2c1c(=O)oc1ccccc21 (stereo not drawn),.,-9%
COc1ccc(NC(=O)c2cc3ccc(O)cc3o/c2=N\O)cc1,?,-29%
NC(=O)c1cc([N+](=O)[O-])ccc1NCC1CCCCC1,-26%,?
CCc1ccc(C2=CC(c3cccc(OC)c3OC)n3c(nc4ccccc43)N2)cc1 (stereo not drawn),-18%[7.34 µM],-12%[7.34 µM]
Cc1cccc(CCNC(=O)c2sc3nc4n(c(=O)c3c2C)CCCC4)c1,-13%,-8%
COc1ccc(C(=O)NCCCNC(=O)c2cccnc2)cc1OC,7%,8%
CC(C)(C)NCC(O)c1ccccc1Cl (stereo not drawn),-8%,-5%
CCCCNC(=O)C(=O)N/N=C/c1ccc(OCc2ccccc2)cc1,-4%,-8%
Cc1cccc(NC(=O)C2CCCN(S(=O)(=O)c3cccc4nonc34)C2)c1 (stereo not drawn),-20%,-5%&-9%
COc1ccc(CNC(=O)c2ccc3c(c2)N(Cc2ccccc2)CCS3)cc1,-12%,-13%
COc1cccc(-c2nc3nc(C)cc(C)n3c2Nc2ccc3c(c2)OCCO3)c1,-17%,-9%
COC(=O)c1ccccc1NC(=S)NC(=O)COc1ccc(C(C)C)cc1,-10%,-24%
CC1=C(C(=O)OCC2CCCO2)C(c2ccc(C)cc2)C2=C(CCCC2=O)N1 (stereo not drawn),-8%,-3%
N#CC(C#N)=C(N)CSc1cccc[n+]1[O-],i,3%
CC(C)c1ccc(NC(=O)c2ccc(NS(C)(=O)=O)cc2)cc1,-20%,-11%
O=C(Cn1ccn(-c2cccc(Cl)c2)c(=O)c1=O)c1ccc(F)cc1,-4%,-4%
COc1cccc(CN(C)C(=O)CC[C@H]2O[C@@H](n3cnc4c(NC(=O)c5ccccc5)ncnc43)[C@H](O)[C@@H]2O)c1,26%,2%
C[C@]12CCC3C(CC[C@H]4C[C@@H](O)CC[C@]34C)[C@H]1CC[C@H]2O (stereo partly drawn),-16%,5%
Cc1ccc2nc(NCc3ccccc3Cl)c3nnnn3c2c1,-19%,-25%
Cc1sc(NC(=O)Cc2ccc3c(c2)OCO3)nc1-c1ccc2c(c1)CCN2C(=O)c1ccc(F)cc1,i,-15%
CCc1ccccc1NC(=O)c1ccc(CN2CCC(Cc3ccccc3)CC2)cc1,.,?
Cc1ccc(CNc2ncnc3c2nnn3C)cc1,-24%,-21%
Cc1c(C(=O)C(=O)NCC2CCCO2)c2ccccc2n1C (stereo not drawn),-5%,3%
CC(C)CC(NC(=O)C(NC(=O)C1OC2OC(C)(C)OC2C2OC(C)(C)OC12)C(C)C)C(=O)O (stereo not drawn),-13%,-3%
COc1cc(O)c(CC=C(C)C)c(O)c1C(=O)CCc1ccc(O)cc1,?,?
COc1ccc(S(=O)(=O)Nc2cccc(-c3ccc4nncn4n3)c2)cc1,?,?
CC(C)C(NS(C)(=O)=O)c1nnc2n1CCN(Cc1cccc3ncccc13)CC2 (stereo not drawn),0%,-3%
CC1Cc2ccccc2C[N+]1(C)CC(=O)c1cccc([N+](=O)[O-])c1 (stereo not drawn),0%,-11%
COc1ccc(CCNC(=O)c2cnc3sc(N4CCCCC4)nn3c2=O)cc1OC,2%,1%
O=C(NNc1ccccc1F)c1sccc1Cl,-19%,-14%
Cc1cnc(-n2ncc(C(=O)NCCc3cccnc3)c2C)nc1-c1ccc(F)cc1,i,-13%
Cc1ccc(N2C(=O)N(CC(=O)NC(N)=O)C(=O)C2C)cc1 (stereo not drawn),-3%,-16%
C[C@@H]1CCCCO[C@@H](CN(C)C(=O)CCC(F)(F)F)[C@@H](C)CN([C@H](C)CO)C(=O)c2cc(N(C)C)ccc2O1,?,-13%
O=C(O)C1CCN(C(=O)c2ccco2)CC1,-22%,-13%
CN(C)CCCNC(=O)C[C@H]1C[C@H](C(=O)N2CCOCC2)[C@@]2(CCC3CCCC3)c3[nH]c4cc(CCC(=O)N(C)C)ccc4c3CCN2C1=O,i,-15%
COCC1CCN(C(=O)C2CCC(=O)N(Cc3ccc(Cl)cc3)C2)CC1 (stereo not drawn),-11%,-9%
O=C(c1ccco1)N1CCN(c2ccccc2F)CC1,-14%[1.46 µM],-16%
CN(C)S(=O)(=O)c1cccc(N=C2SCCN2Cc2ccccc2)c1,?,-4%
Cc1ccc(C)c(C(=O)CN2C(=O)NC3(CCCCCCC3)C2=O)c1,-6%,-4%
COc1ccccc1CN1CCNC(=O)C1CC(=O)NCCCN1CCOCC1 (stereo not drawn),i,0%
COc1ccccc1NC(c1ccc(Cl)cc1)c1nnc(-c2cccc(F)c2)o1 (stereo not drawn),2%,-10%
Cn1c(=O)c2c(nc(CN3CCN(Cc4ccccc4)CC3)n2Cc2ccc(F)cc2)n(C)c1=O,3%,-3%
O=C(c1ccc(S(=O)(=O)N2CCCCC2)cc1)N1CCCC(C(F)(F)F)C1 (stereo not drawn),i,-13%
O=C(Cn1[nH]c(=O)c2ccccc2c1=O)OCC(=O)c1ccc(F)cc1,0%,-11%
CSc1ncccc1C(=O)OCC(=O)NC1CCCc2ccccc21 (stereo not drawn),i,-6%

# High-throughput results (PubChem)
